High-throughput results (PubChem BioAssay)
FGF22 binding = binders of human FGF22 protein, primary screen, FGF22 synaptogenesis inhibitor project, biophysical, thermal shift, single point. actives 1.5% (n = 340,000). calls only at 9.99 µM. recombinant FGF22 thermal shift, SYPRO orange fluorescence; percent of sucrose octasulfate shift, DMSO zero. Fibroblast growth factor 22 (Homo sapiens), Q9HCT0;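 active = melting point raised past a set limit in the mean and every replicate; three in four hits are not shown here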
Target sequence (Q9HCT0 whole entry, looked up): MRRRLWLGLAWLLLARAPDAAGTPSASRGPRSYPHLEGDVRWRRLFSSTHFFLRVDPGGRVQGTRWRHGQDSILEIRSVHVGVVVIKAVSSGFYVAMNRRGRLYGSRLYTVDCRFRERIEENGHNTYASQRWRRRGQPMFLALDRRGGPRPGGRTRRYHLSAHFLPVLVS
Ecoli rRNA inh = reduced GFP signal of wild-type E. coli, primary screen, bacterial rRNA inhibitor project, GFP/RFP fluorescence, OD600, single point. GFP signal change (wild-type ribosome), % (test concentration not listed). E. coli WT GFP vs humanized-ribosome RFP mutants, 24 h; hits give low values; DMSO median 0, no signal -100. actives 1.6% (n = 350,000);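 active = significant combined selectivity score with lowered wild-type GFP, culture density cut under 30%, mutant RFP and density less affected; inactive = any of these conditions unmet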; note: one replicate is shown; some compounds called inactive have numbers as strong as hits
MLL AF4-AF9 inh = inhibitors of AF4 peptide binding to AF9, primary screen, biochemical, AlphaScreen, biotin-AF4 peptide, FLAG-AF9, single point; AID 651704, 2012; inhibition, % at 10 µM; actives 0.47% (n = 350,000);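 active = every replicate reaching a set inhibition limit, whatever the replicate mean, cut at about 25% in these data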;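 note: 0% = plate neutral control median and 100% = total signal loss; the record names both 10 and 1 µM as test concentration; the first replicate is given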
Target sequence (P42568 whole entry, looked up): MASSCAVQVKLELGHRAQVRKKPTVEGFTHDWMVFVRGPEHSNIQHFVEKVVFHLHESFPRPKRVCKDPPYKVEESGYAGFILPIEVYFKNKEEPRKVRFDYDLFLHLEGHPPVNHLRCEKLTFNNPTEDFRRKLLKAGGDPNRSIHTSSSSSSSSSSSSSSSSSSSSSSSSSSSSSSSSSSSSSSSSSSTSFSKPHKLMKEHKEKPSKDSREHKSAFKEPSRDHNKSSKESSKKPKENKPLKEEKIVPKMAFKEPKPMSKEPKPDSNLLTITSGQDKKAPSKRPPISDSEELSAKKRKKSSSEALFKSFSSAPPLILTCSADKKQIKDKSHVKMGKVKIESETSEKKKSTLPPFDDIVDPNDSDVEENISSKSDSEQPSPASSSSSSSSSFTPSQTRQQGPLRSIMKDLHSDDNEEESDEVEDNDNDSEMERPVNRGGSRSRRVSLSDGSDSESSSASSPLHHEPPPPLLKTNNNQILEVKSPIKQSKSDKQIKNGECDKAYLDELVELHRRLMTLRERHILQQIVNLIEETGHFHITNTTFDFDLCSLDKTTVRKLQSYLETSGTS
Ecoli rRNA inh OD600 = recorded beside Ecoli rRNA inh, whose call it bears; OD600 change, %; measured here: OD600 growth;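 optical density of the mix in the first replicate; 0 = DMSO median and -100 = no signal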
Ecoli rRNA inh RFP = further read-out of Ecoli rRNA inh, marked with its call; RFP signal change, %; measured here: RFP humanized mutant strains;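 first replicate; 0 = DMSO median and -100 = no signal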
Active calls of the source: *; i = inactive; x = not tested or not shown; & = joins results of further samples. An excerpt; rates above refer to the full screens.

Compound | FGF22 binding | Ecoli rRNA inh | Ecoli rRNA inh OD600 | Ecoli rRNA inh RFP | MLL AF4-AF9 inh
CC1=C(C(=O)N(C(C)C)C(C)C)CC(CC(=O)NCCc2ccccn2)C(=O)N1CCCN1CCCC1=O (stereo not given) | i | 9 | 10 | -0.7 | -3.1
COc1ccc(NC(=O)Nc2ccc3c(c2)C(=O)N([C@H](C)CO)C[C@@H](C)[C@H](CN(C)S(=O)(=O)c2ccccc2)OCCCC[C@H](C)O3)cc1 | i | 2 | 6 | -1.7 | -1.4
COC(=O)[C@]12CCCCC=C1N(Cc1ccco1)C(=O)[C@H](CC(=O)N1CCSCC1)C2 | i | 6 | 2 | 8.6 | -0.5
C[C@H](CO)N1C[C@H](C)[C@@H](CN(C)S(C)(=O)=O)Oc2ncc(C#Cc3ccccc3F)cc2C1=O | i | -2 | 1 | 2.2 | 4.4
O=C1C2C3C=CC(O3)C2C(=O)N1N=C1CCCCC1 (stereo not given) | i | 13 | 13 | 1.0 | 7.4
C[C@H](CO)N1C[C@H](C)[C@H](CN(C)C(=O)Nc2ccc(C(F)(F)F)cc2)Oc2c(NC(=O)NC3CCCCC3)cccc2C1=O | i | -5 | -6 | -0.8 | -8.8
C[C@@H]1CN([C@@H](C)CO)C(=O)c2cc(C#CCc3ccccc3)cnc2O[C@H]1CN(C)Cc1ccccc1 | i | -8 | -40 | 25 | 10
COc1cccc(S(=O)(=O)N[C@H]2CC[C@@H](CC(=O)NC3Cc4ccccc4C3)O[C@H]2CO)c1 | i | -4 | 5 | 1.5 | -0.1
CCN(C(=O)CSc1nnc(-c2cccc(F)c2)n1N)c1c(N)n(Cc2ccccc2)c(=O)[nH]c1=O | i | 17 | 13 | 2.0 | -0.1
CC(C)NC(=O)Nc1ccc2c(c1)C(=O)N([C@H](C)CO)C[C@H](C)[C@H](CN(C)CC1CCCCC1)OCCCC[C@H](C)O2 | i | 2 | 1 | 0.1 | 1.5
CN(CC(=O)Nc1ccc(Cl)c(C(F)(F)F)c1)S(=O)(=O)c1cnc[nH]1 | i | -10 | -10 | -3.7 | -1.8
Cc1ccc(S(=O)(=O)Nc2ccc3c(c2)C(=O)N([C@@H](C)CO)C[C@@H](C)[C@@H](CN(C)C(=O)Nc2c(C)noc2C)OCCCC[C@H](C)O3)cc1 | i | -1 | -2 | -1.7 | -4.3
C[C@H](CO)N1C[C@H](C)[C@H](CN(C)C(=O)Nc2cccc3ccccc23)OCCCC[C@H](C)Oc2ccc(NS(=O)(=O)c3ccc(Cl)cc3)cc2C1=O | i | -8 | -10 | -1.7 | -3.9
C[C@H](CO)N1C[C@H](C)[C@H](CN(C)C)Oc2cc(-c3ccc(C#N)cc3)ccc2S1(=O)=O | i | 0 | 8 | -2.2 | 0.1
COc1ccc(-c2nc3ccc(Cl)cn3c2Cc2cccc(F)c2)cc1OC | i | -21* | -15* | 2.7* | 3.2
O=C(Nc1ccccc1)[C@@H]1[C@@H](CO)[C@@H]2Cn3c(cccc3=O)[C@@H]2N1C(=O)C1CC1 | i | 4 | 6 | -3.3 | -0.5
C[C@@H]1CN([C@H](C)CO)C(=O)Cc2cc(NC(=O)Cc3ccccc3)ccc2O[C@H]1CN(C)Cc1ccc(-c2ccccc2)cc1 | i | -1 | 1 | -1.2 | -0.8
O=C(c1cccs1)N1C[C@@H](O)[C@H](n2cc(C3CC3)nn2)C[C@@H]1c1ccccc1 | i | -1 | 3 | -1.9 | -3.6
Cc1cccc(NC(=O)CN(C)C(=O)c2ccc3ccccc3n2)c1C | i | 1 | 6 | -2.3 | -7.4
CC(C)CC(N)c1csc(Nc2cc(Oc3ccccc3)ncn2)n1 (stereo not given) | i | -63 | -79 | -21 | 12
Cc1noc(C)c1NC(=O)Nc1ccc2c(c1)C(=O)N([C@@H](C)CO)C[C@@H](C)[C@H](CN(C)C(=O)CCCN(C)C)OCCCC[C@H](C)O2 | i | 4 | 2 | -2.0 | -1.8
CCCCCCN1CCN(C2CN(Cc3cn(Cc4ccc(C(F)(F)F)cc4)nn3)S(=O)(=O)C2)CC1 (stereo not given) | i | 1 | -6 | 8.6 | 1.8
c1ccc(-c2nc3ccccc3nc2-c2ccc(CN3CCC4(CC3)CNc3ccccc34)cc2)cc1 | i | 5 | 12 | 6.1 | -0.3
C[C@H](CO)N1C[C@H](C)[C@H](CN(C)Cc2ccc(C(=O)O)cc2)OCc2ccccc2-c2c(n(C)c3ccccc23)C1=O | i | 3&3 | 7&4 | 2.2&-1.0 | 2.6&-1.5
Cc1ccc(S(=O)(=O)N(C)C[C@H]2Oc3cc(C#Cc4ccncc4)ccc3S(=O)(=O)N([C@H](C)CO)C[C@H]2C)cc1 | i | 0 | 6 | 8.4 | -2.6
Cc1noc(C)c1NC(=O)Nc1ccc2c(c1)C(=O)N([C@@H](C)CO)C[C@@H](C)[C@H](CN(C)C(=O)Nc1ccccc1)OCCCC[C@H](C)O2 | i | 1 | 2 | -0.2 | -3.7
CNC(=O)C[C@@H]1CC[C@H]2[C@@H](COc3ccc(NC(=O)Nc4cc(C)cc(C)c4)cc3C(=O)N2C)O1 | i | 1 | -3 | 1.1 | 2.0
COc1ccc(CN(C)C[C@@H]2OCCCC[C@H](C)Oc3ccc(NS(C)(=O)=O)cc3C(=O)N([C@@H](C)CO)C[C@@H]2C)cc1 | i | 4 | 11 | -3.5 | 2.6
CCCNC(=O)N1C[C@@H](C)[C@@H](OC)CN(C)C(=O)c2ccc(NC(=O)C3CCC3)cc2OC[C@H]1C | i | -1 | 0 | -0.5 | -2.4
CC(C)C#Cc1cnc2c(c1)C(=O)N([C@H](C)CO)C[C@H](C)[C@H](CN(C)C(=O)Nc1cc(F)ccc1F)O2 | i | -1 | 0 | -2.7 | 0.2

An excerpt from above in order of their number in Ecoli rRNA inh, largest number first:
| Structure | Ecoli rRNA inh |
| --- | --- |
| COc1ccc(CN(C)C[C@@H]2OCCCC[C@H](C)Oc3ccc(NS(C)(=O)=O)cc3C(=O)N([C@@H](C)CO)C[C@@H]2C)cc1 | 4 |
| Cc1cccc(NC(=O)CN(C)C(=O)c2ccc3ccccc3n2)c1C | 1 |
| Cc1ccc(S(=O)(=O)N(C)C[C@H]2Oc3cc(C#Cc4ccncc4)ccc3S(=O)(=O)N([C@H](C)CO)C[C@H]2C)cc1 | 0 |
| O=C(c1cccs1)N1C[C@@H](O)[C@H](n2cc(C3CC3)nn2)C[C@@H]1c1ccccc1 | -1 |
| CC(C)CC(N)c1csc(Nc2cc(Oc3ccccc3)ncn2)n1 (stereo not given) | -63 |

Quoted at random: two compounds from above
Compound | FGF22 binding | Ecoli rRNA inh | Ecoli rRNA inh OD600 | Ecoli rRNA inh RFP | MLL AF4-AF9 inh
Cc1noc(C)c1NC(=O)Nc1ccc2c(c1)C(=O)N([C@@H](C)CO)C[C@@H](C)[C@H](CN(C)C(=O)Nc1ccccc1)OCCCC[C@H](C)O2 | i | 1 | 2 | -0.2 | -3.7
CC(C)CC(N)c1csc(Nc2cc(Oc3ccccc3)ncn2)n1 (stereo not given) | i | -63 | -79 | -21 | 12

Next part:
Compound | FGF22 binding | Ecoli rRNA inh | Ecoli rRNA inh OD600 | Ecoli rRNA inh RFP | MLL AF4-AF9 inh
C[C@H](CO)N1C[C@H](C)[C@H](CN(C)C(=O)c2ccccc2)OCCCC[C@H](C)Oc2ccc(NS(=O)(=O)c3ccc(F)cc3)cc2C1=O | i | 1 | -12 | 0.2 | -3.8
CC1(C)CC(Cc2ccccc2C(F)(F)F)N(C(=O)OC(C)(C)C)C1 (stereo not given) | x | 9 | 13 | 0.3 | -3.3
CC(C)NC(=O)Nc1ccc2c(c1)CC(=O)N([C@@H](C)CO)C[C@H](C)[C@@H](CN(C)Cc1ccc(C(=O)O)cc1)O2 | i | 0 | 10 | -1.5 | -1.5
O=C(N[C@H]1CC[C@@H](CC(=O)N2CCc3ccccc3C2)O[C@@H]1CO)C1CC1 | i | -1 | -1 | 1.3 | -2.2
O=C(C[C@@H]1C=C[C@H](NS(=O)(=O)c2ccccc2)[C@H](CO)O1)NCc1ccccc1F | i | 1 | 2 | -3.6 | -4.1
C[C@@H]1CN([C@H](C)CO)C(=O)c2cc(NS(=O)(=O)c3ccc(Cl)cc3)ccc2O[C@@H]1CN(C)C(=O)Nc1ccc2c(c1)OCO2 | i | 2 | -2 | -0.2 | 2.2
CCNC(=O)[C@H]1[C@H](CO)[C@H]2Cn3c(ccc(-c4ccccc4F)c3=O)[C@H]2N1C(=O)CC | i | 0 | 5 | 2.2 | -1.8
C[C@H]1CN([C@@H](C)CO)C(=O)c2cc(-c3ccncc3)cnc2O[C@@H]1CN(C)C(=O)c1ccncc1 | i | 2 | 2 | -0.6 | -6.3
CCS(=O)(=O)Nc1ccc2c(c1)C(=O)N(C)C[C@@H](OC)[C@@H](C)CN(CCC(F)(F)F)[C@@H](C)CO2 | i | 2 | -4 | -0.4 | 1.0
CC(C)NC(=O)N(C)C[C@H]1OCCCC[C@@H](C)Oc2ccc(NC(=O)Cc3ccccc3)cc2C(=O)N([C@@H](C)CO)C[C@@H]1C | i | 1 | 2 | 1.1 | 2.0
CN1CCCC(C)(C(=O)Nc2ccc3scnc3c2)C1 (stereo not given) | i | 16 | 13 | 2.1 | -2.0
CCCC#Cc1ccc([C@H]2[C@@H](CO)N(S(=O)(=O)c3cccc(F)c3)[C@H]2C#N)cc1 | i | -27 | -65 | -3.4 | 0.1
CCC(=O)N(C)C[C@H]1Oc2ncc(-c3ccc(F)cc3)cc2C(=O)N([C@@H](C)CO)C[C@@H]1C | i | 3 | 8 | 0.3 | -1.1
COCC(=O)N1C[C@@H](C)[C@H](OC)CN(C)C(=O)c2cc(NC(=O)c3ccccc3)ccc2OC[C@H]1C | i | -3 | -2 | -0.6 | -9.7
C[C@H](CO)N1C[C@H](C)[C@H](CN(C)C(=O)NC2CCCCC2)Oc2cc(C#Cc3cccc(F)c3)ccc2S1(=O)=O | i | -5 | -6 | -4.4 | -12
CNC(=O)C[C@H]1CC[C@H]2[C@H](COc3ccc(NC(=O)c4ccc(F)cc4)cc3C(=O)N2C)O1 | i | 1 | 3 | -1.3 | -2.0
O=C(Cc1cccnc1)N[C@H]1CC[C@H](CCNS(=O)(=O)c2ccccc2Cl)O[C@@H]1CO | i | -2 | 0 | -0.2 | 2.2
CCCN(C)C[C@@H]1Oc2ncc(-c3ccccc3OC)cc2C(=O)N([C@H](C)CO)C[C@H]1C | i | 1 | 2 | -3.3 | 2.0
CCCCN(C(=O)C1CCN(C(=O)c2ccccc2C)CC1)c1c(N)n(CC(C)C)c(=O)[nH]c1=O | i | 11 | 10 | 0.9 | -0.4
C[C@H]1CN([C@@H](C)CO)C(=O)c2cccc(NC(=O)C3CCCCC3)c2O[C@@H]1CN(C)Cc1ccc(C(F)(F)F)cc1 | i | -3 | 6 | -3.3 | 4.9
c1ccc2c(C3OCC4(CCCCC4)CO3)cccc2c1 | i | -11 | -23 | -0.7 | -18
OC[C@H]1[C@H](c2ccc(-c3ccc(F)cc3)cc2)[C@H]2CN(Cc3ccccn3)CCCCN21 | i | -38 | -31 | 2.8 | 5.9
N#C[C@H]1[C@H](c2ccc(-c3cncnc3)cc2)[C@@H](CO)N1C(=O)Cc1ccccc1 | i | 12 | 20 | 0.6 | -1.6
CCCN(C)C[C@@H]1Oc2cc(C#Cc3ccccc3OC)ccc2S(=O)(=O)N([C@H](C)CO)C[C@@H]1C | i | -1 | 7 | 0.6 | 8.3
CCCCC[C@H](C)N1C[C@@H](COCc2ccccc2)Oc2cc(N3CCC[C@H]3CO)ccc2S1(=O)=O | i | 13 | -1 | -0.6 | -3.1
COCCCNC(=O)[C@H](Cc1ccccc1)NC(=O)CC[C@H]1O[C@@H](n2ccc(=O)[nH]c2=O)[C@H](O)[C@@H]1O | i | 12 | 9 | -1.2 | 1.0
NS(=O)(=O)c1ccc(NC(=O)CCC(=O)O)cc1 | i | -11* | 1.0* | 0.5* | -3.5
CC=Cc1ccc2n(c1=O)C[C@H]1[C@H](CO)[C@@H](C(=O)NCCCN(C)C)N(Cc3cocn3)[C@@H]21 (mixture of isomers) | i | 3 | -3 | -0.7 | -0.5
Cc1ccc(S(=O)(=O)Nc2ccc3c(c2)CC(=O)N([C@@H](C)CO)C[C@H](C)[C@H](CN(C)C)O3)cc1 | i | 2 | 8 | -1.9 | -0.6
CN(C)C(=O)C[C@@H]1CC[C@H]2[C@@H](COC[C@H](O)CN2Cc2nccs2)O1 | i | 6 | 8 | 4.6 | -5.8
Cc1noc(C)c1NC(=O)N(C)C[C@H]1Oc2ccc(NC(=O)NC3CCCCC3)cc2CC(=O)N([C@@H](C)CO)C[C@@H]1C | i | 4 | 12 | -1.7 | -2.6
